Screening results as filed in PubChem.
MT1-MMP act inh – MT1-MMP (human) activation inhibition; AID 651647; hit rate 0.061% among 360,000; HT1080 RFP-PRO-GFP cells, GFP/RFP ratio fluorescence, overnight; percent of plate control window, DMSO zero; P50281; GFP/RFP ratio change, % at 20 µM;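 active means GFP/RFP ratio change of at least 30% with cell ATP level not reduced by more than half and red fluorescence within 50% of control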; further: strong numbers were not always called active
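Assay system: HT1080 cells carrying an RFP-PRO-GFP reporter | Dosing: Single dose of 20 µM compound, 1% DMSO final | Incubation: Cells overnight before dosing, compound overnight, 37 °C, 5% CO2 | Evaluation: GFP/RFP fluorescence ratio | Control set: DMSO and RFP-L50D-GFP cell wells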
eIF4H inh – inhibitors of RNA binding by human eIF4H. hit rate 0.94% among 290,000. Q15056. eIF4H fluorescence polarization binding assay. AID 2012. inhibition, % at 35 µM;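 active means 50% or more with normal probe brightness, or confirmed in later tests; inconclusive means above 50% with abnormal brightness, or retests that disagree; inactive means below 50% or failed in later tests; about a fifth of its hits are not listed in these tables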;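 further: calls also rest on retests at 20 µM and on dose response follow-up; 0% = protein and probe with vehicle and 100% = probe without protein; strong numbers were not always called active; many hits fall short of the cut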
PABP polyA inh – PABP-poly(A) binding inhibition; P11940; PABP-poly(A) RNA binding, fluorescence polarization; inhibition, % at 35 µM; hit rate 1% among 290,000;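 active means 50% or more with normal probe brightness, or confirmed in later tests; inconclusive means above 50% with abnormal brightness, or retests that disagree; inactive means below 50% or failed in later tests; about a fifth of its hits are not listed in these tables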;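 further: calls also rest on retests at 20 µM and on dose response follow-up; controls were probe without protein and protein plus probe with vehicle; some compounds called inactive have numbers as strong as hits; many hits fall short of the cut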
Target sequence (P11940 whole entry, looked up): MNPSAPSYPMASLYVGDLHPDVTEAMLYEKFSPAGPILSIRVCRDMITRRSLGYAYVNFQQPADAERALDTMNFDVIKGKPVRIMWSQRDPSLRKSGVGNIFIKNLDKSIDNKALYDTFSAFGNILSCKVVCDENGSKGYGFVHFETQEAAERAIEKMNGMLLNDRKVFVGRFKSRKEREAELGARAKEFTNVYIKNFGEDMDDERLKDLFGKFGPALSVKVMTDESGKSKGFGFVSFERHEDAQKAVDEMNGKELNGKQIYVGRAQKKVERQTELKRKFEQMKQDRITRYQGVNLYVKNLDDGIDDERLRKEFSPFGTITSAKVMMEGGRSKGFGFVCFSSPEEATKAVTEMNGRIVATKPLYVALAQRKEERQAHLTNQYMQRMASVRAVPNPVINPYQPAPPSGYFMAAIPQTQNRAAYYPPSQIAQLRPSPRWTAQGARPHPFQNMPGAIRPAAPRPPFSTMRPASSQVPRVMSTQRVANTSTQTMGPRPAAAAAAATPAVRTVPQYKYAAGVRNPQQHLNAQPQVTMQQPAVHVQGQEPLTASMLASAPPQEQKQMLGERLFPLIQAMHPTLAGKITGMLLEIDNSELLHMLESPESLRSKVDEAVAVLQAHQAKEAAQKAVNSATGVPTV
UUG fidelity – alters start codon recognition fidelity in yeast | S. cerevisiae UUG-firefly luciferase reporter, luminescence/redox ratio | activity score, % at 18.7 µM | hit rate 0.13% among 350,000 | AID 602363;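 active means replicate mean at a twofold rise or more, about +100% in these data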;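 further: firefly luciferase made from a UUG start codon reports start codon fidelity; reporter light over untreated wells divided by growth signal over untreated wells; some hits fall short of that in this replicate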
CSC inhib – cancer stem cell inhibition | cancer stem cell-like cells viability, luminescence | inhibition, % at 7.5 µM | hit rate 1.1% among 300,000;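 active means mean at 75% or more and at least half the replicates too; inconclusive means mean and replicates disagree; tested in HMLE shEcad cells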;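 further: 0% = median of negative and 100% = median of positive control wells; the first replicate is given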
Rce1 inh – blocks yeast Ras-converting enzyme | yeast membranes, quenched prenylated peptide cleavage fluorescence | calls only | hit rate 0.27% among 290,000;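 active means fall in fluorescence gain of 50% or more versus controls, with final raw signal at or below 3038400; inconclusive means same 50% fall but final raw signal above 3038400; inactive means fall in fluorescence gain under 50%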;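 further: plate controls were neutral control wells for no effect and wells lacking membranes for full effect; tested at 10 µM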
Target sequence (Q03530 whole entry, looked up): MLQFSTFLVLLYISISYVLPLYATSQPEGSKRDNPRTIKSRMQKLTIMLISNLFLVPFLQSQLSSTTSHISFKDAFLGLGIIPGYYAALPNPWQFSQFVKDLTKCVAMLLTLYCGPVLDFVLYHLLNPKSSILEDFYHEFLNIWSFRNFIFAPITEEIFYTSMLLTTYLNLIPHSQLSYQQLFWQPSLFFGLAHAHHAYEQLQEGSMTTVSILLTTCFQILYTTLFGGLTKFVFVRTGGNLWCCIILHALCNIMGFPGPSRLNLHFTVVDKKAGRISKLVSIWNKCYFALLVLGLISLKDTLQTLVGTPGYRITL
HIV Env fusion – blocks HIV Env-driven cell-cell fusion; hit rate 1.1% among 360,000; AID 651610; inhibition, % at 12.3 µM; HeLa-JRFL Env/CEM21 cell fusion, luciferase;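 active means mean replicate inhibition score of at least 50 and every replicate individually at or above 50; inconclusive means only one of the two criteria met; inactive means mean below 50 and not all replicates reaching 50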;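 further: 0% = plate neutral controls and 100% = maraviroc near 300 nM; one replicate is shown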
eIF4H inh retest – further read-out of eIF4H inh, marked with its call; inhibition, %; compound at 20 µM; confirmation average;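 mean of two retest wells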
PABP polyA inh retest – also measured in PABP polyA inh; calls as there; inhibition, %; compound at 20 µM; confirmation repeats;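 mean of two retest wells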
MT1-MMP act inh RFP – second read-out of MT1-MMP act inh, no call of its own (marks repeat the call); RFP signal change, %; measured here: RFP expression control read;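 0 = vehicle wells; hits needed this value within 50% of zero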
The depositor's hits bear a star; i = inactive; u = inconclusive; x = no result given. Rows are unselected. About 2.9% of those tested had a hit in this group.

SMILES	MT1-MMP act inh	MT1-MMP act inh RFP	eIF4H inh	PABP polyA inh	UUG fidelity	CSC inhib	Rce1 inh	HIV Env fusion	others
Cn1c(Cn2c(=O)sc3ccccc32)nnc1SCC(=O)N1CCCCCC1	0	2	10	3	-9	-10	i	-8
COC(=O)c1cc(NC(=O)c2cccc(Cl)c2)c(=O)oc1/C=C/Nc1cc(C)cc(C)c1	x	x	u	3	x	-10	i	x
Cc1ccc(C(=O)O/N=C/c2c(N3CCOCC3)n(C)c3ccccc23)cc1	-3	-5	-4	-5	-10	-7	i	u
CC(C)c1cc(=O)[nH]c(N2CCN(Cc3ccc4c(c3)OCO4)CC2)n1	2	-2	-1	-2	-24	-1	i	1
Cc1csc(NC(=O)c2ccc(OCC3CCCO3)cc2)n1 (stereo unspecified)	3	-7	-1	-1	-42	22	i	-9
COc1ccc(C2=CC(=O)CC(c3ccccc3)C2)cc1 (stereo unspecified)	4	0	1	3	-6	7	i	12
Cc1ccc(-c2nnn(CC(=O)N(Cc3ccccc3)C(C(=O)NC(C)(C)C)c3ccncc3)n2)o1 (stereo unspecified)	-17	-9	6	-17	x	x	i	x
O=C(CCNS(=O)(=O)c1ccc(Br)cc1)NCc1ccc(Cl)cc1	0	-1	x	x	-9	-7	i	-1
Cc1ccc([N+](=O)[O-])c(OCCCN2C(=O)NC(C)(C)C2=O)c1	-2	-3	-8	-5	x	-4	i	15
Cc1cc(C)nc(Sc2ccc(C=O)cc2[N+](=O)[O-])n1	-2	-1	5	-3	x	-1	i	-13
CC(Oc1ccc2ccc(=O)oc2c1)C(=O)c1ccccc1 (stereo unspecified)	0	-3	9	0	x	-4	i	x
CCOC(=O)C1(Cc2cccc(OC)c2)CCCN(C(=O)CNC(C)=O)C1 (stereo unspecified)	-2	-3	-5	-1	5	-7	i	-32
O=C(c1cccc(Cl)c1)N1CCN(c2ncnc3c2cnn3-c2ccccc2)CC1	2	2	3	-6	x	-19	i	4
O=C1c2ccccc2NC(c2ccc(O)cc2)N1c1ccccc1 (stereo unspecified)	-1	4	0	-2	-23	18	i	-32
Cc1onc(-c2ccccc2Cl)c1C(=O)c1ccccc1	-6	-2	-2	8	-15	-10	i	11
CC1(C(=O)NCC2CC2)CCN1C(=O)C1(c2ccc(Cl)cc2)CC1 (stereo unspecified)	0	3	x	x	-5	x	x	10
Cc1cc(=O)oc2c(CN3CC(C)OC(C)C3)c(O)c(Cl)cc12 (stereo unspecified)	9	3	53	54	x	1	i	-18	eIF4H inh retest=0;PABP polyA inh retest=2
COc1ccccc1NC(=O)N1CCC(C(=O)c2ccc(Cl)cc2)CC1	1	1	-13	11	10	-8	i	1
CCn1c2c(c3cc(C(=O)O)ccc31)CCCC2=O	1	8	3	7	-8	8	i	-1
CCOC(=O)C1CCN(c2ncnc3c2oc2ccc(Br)cc23)CC1	-2	-1	5	-4	x	x	i	x
CCOC(=O)c1c(C)nc2sc3c(c2c1-c1ccc(OC)cc1)NC(c1ccc(OC)cc1)NC3=O (stereo unspecified)	0	-8	-11	-9	-8	-12	i	x
COCCNc1nc2c(c(=O)n(C)c(=O)n2C)n1Cc1cccc(C)c1	-1	-6	-5	-5	-11	-10	i	44
Cn1c(CSCC(=O)Nc2ccccc2)nnc1SCc1ccccc1	1	0	-7	-6	x	3	i	9
CN(C(=O)c1cccnc1)c1nc(-c2ccccc2)cs1	-4	-2	-12	5	-20	-8	i	-66
CCN(CC)c1ccc(NC(=O)COc2ccccc2C#N)cc1S(=O)(=O)Nc1ccc(OC)cc1	-1	-2	-4	9	-14	-12	i	35
O=C(NCCS(=O)(=O)c1ccc(Br)cc1)c1c(F)cccc1F	-1	0	2	4	-14	0	i	1
O=C(/C=C/c1ccccc1O)c1ccccc1	-1	2	x	x	-13	x	x	-4
Cc1ccc(CSc2nnc(Cn3c(=O)sc4ccccc43)n2C)cc1	4	1	2	-16	-8	-1	i	15
C[C@H](NC(=O)Cn1cncn1)c1ccccc1	2	4	-7	-2	-1	-6	i	-39
COc1ccccc1-c1cnc(C(O)c2c(C)cccc2C)[nH]1 (stereo unspecified)	0	5	x	x	-21	x	x	21

The closing 4 compounds of the section above lead into the next:
SMILES	MT1-MMP act inh	MT1-MMP act inh RFP	eIF4H inh	PABP polyA inh	UUG fidelity	CSC inhib	Rce1 inh	HIV Env fusion	others
O=C(/C=C/c1ccccc1O)c1ccccc1	-1	2	x	x	-13	x	x	-4
Cc1ccc(CSc2nnc(Cn3c(=O)sc4ccccc43)n2C)cc1	4	1	2	-16	-8	-1	i	15
C[C@H](NC(=O)Cn1cncn1)c1ccccc1	2	4	-7	-2	-1	-6	i	-39
COc1ccccc1-c1cnc(C(O)c2c(C)cccc2C)[nH]1 (stereo unspecified)	0	5	x	x	-21	x	x	21
CCN(CC)CCNC(C(=O)Nc1cccc(C(C)=O)c1)c1ccccc1 (stereo unspecified)	5	4	-8	0	x	-8	i	6
Cc1[nH]n(-c2ccccc2)c(=O)c1/C=N/n1c(C)nc2ccccc2c1=O	0	-1	1	60*	-27	9	x	7
CC(C)C(NC(=O)c1ccccc1)C(=O)NC1=NCCS1 (stereo unspecified)	-1	2	0	4	-19	0	i	x
COc1ccc(CC(=O)NCC2CCCCC2)cc1OC	4	1	2	-1	5	2	i	-19
Cc1cc(C)cc(NC2=C(N)C(=O)c3ccccc3C2=O)c1	-2	-1	-3	-9	-12	1	i	x
Cc1ccc(CNS(=O)(=O)c2cc3c4c(c2)CCN4C(=O)CC3)cc1	2	-1	x	x	x	-5	i	11
CCOC(=O)CCc1c(C)c2ccc(OC3CCCCC3=O)c(C)c2oc1=O (stereo unspecified)	7	-3	3	-12	-14	-7	i	-28
CC(C)CNC(=S)Nc1ccc(S(N)(=O)=O)cc1	-3	1	5	7	-23	-5	i	-7
CCOC(=O)c1sc(NC(=O)CCN2CCC(C)CC2)c(C(=O)OCC)c1C	3	4	5	5	x	-11	i	-3
Cc1cc(=O)[nH]c(SCC(=O)Nc2ccc(Br)cc2)n1	4	-2	10	2	7	22	i	7
CCOc1ccc(N(CC(=O)NC2CCCC2)C(=O)CSc2nnc(COc3ccccc3)o2)cc1	-6	-9	5	-1	-17	6	i	-2
CN(C(=O)COC(=O)C(Cc1ccccc1)NC(=O)c1ccccc1)c1ccccc1 (stereo unspecified)	0	1	-9	-6	-6	-17	i	-13
CC(C)NC(=O)/C(C#N)=C\c1ccc(N(C)C)c(Br)c1	-4	-4	-5	47	x	-6	i	12
CCOC(=O)C1=C(C)N(C)C(=O)NC1c1cccc(O)c1 (stereo unspecified)	-3	-6	3	-4	-9	4	i	x
Cc1ccc[n+](CC(=O)Nc2cc(C(F)(F)F)ccc2N2CCOCC2)c1	1	2	-7	-11	-12	-3	i	-10
CN(c1ccccc1)S(=O)(=O)c1ccc(Cl)c(C(=O)Nc2nc3ccccc3[nH]2)c1	0	-10	16	-5	-13	-3	i	72*
COc1cccc(CN2CCN(Cc3ccc(OC)c(OC)c3)CC2CCO)c1 (stereo unspecified)	3	2	1	-4	9	12	i	7
COc1cc(C)c(C(C)C)cc1S(=O)(=O)n1cnc(C)c1	4	-7	-17	0	-2	55	i	-90
CN(C)CCCN(C(=O)/C=C/c1cccs1)c1nc2c(F)cccc2s1	3	-4	-10	4	x	x	i	8
COc1ccc(CC(=O)NCc2cccs2)cc1OC	2	0	-5	-3	-29	-8	i	-15
Cc1ccc(CCNC(=O)CC(C)CC2=NS(=O)(=O)c3ccccc3N2)cc1 (stereo unspecified)	4	0	x	x	14	-4	i	3
CC(NC(=O)CN(C)S(=O)(=O)c1cnc[nH]1)c1ccccc1 (stereo unspecified)	1	3	-2	-11	x	4	i	10
CCN(C(=O)COC(=O)c1ccc([N+](=O)[O-])o1)C1CCCCC1	0	0	x	x	12	6	x	x
COc1ccc2ccccc2c1/C=N/NC(=O)c1ccccc1F	-1	1	3	8	-5	3	i	-11
Nc1cc(=O)[nH]c(SCC(=O)Nc2ccc(S(=O)(=O)N3CCCC3)cc2)n1	3	4	x	x	-7	3	x	9
Nc1ccccc1C(=O)NC1CCCCNC1=O (stereo unspecified)	6	4	-1	-9	47	0	i	-16
Cn1c(C(=O)NCCc2c[nH]c3ccccc23)cc2sccc21	2	0	1	5	-5	8	i	-80
CCNC(=O)c1oc2c(c1C)C(=O)CC(C)(C)C2	4	6	3	1	-19	-10	i	-2
COC(=O)c1ccccc1NC(=O)C1CC=CCC1C(=O)O (stereo unspecified)	-1	0	12	2	-12	-3	i	-43
CCN(CC)CCN1C(=O)c2ccccc2NC1c1ccc(F)cc1 (stereo unspecified)	0	1	1	-3	-15	-3	i	1
O=C(c1cnc2n(c1=O)CCS2)N(C1CCCCC1)C1CCCCC1	2	2	-3	-11	-12	-2	i	x
COc1ccc(Br)cc1CNC(=O)CCNC(=O)Cn1ccc2ccccc2c1=O	0	-2	-6	2	-9	-4	i	28
CCCCN1C(=O)C(CC(=O)NC2CCCCC2)CC(C(=O)N(C)C)=C1C (stereo unspecified)	4	5	x	x	-8	x	x	6
N/C(=N\O)c1ccc([N+](=O)[O-])s1	5	-1	-9	3	x	8	i	-4
CC(=O)N1CCC2(CC1)C/C(=N\NC(=S)Nc1ccccc1F)c1cc(O)ccc1O2	-8	-5	10	-12	x	7	i	23
O=C(CCc1nnc(-c2ccccc2)o1)NC1CCCCC1	0	2	-2	0	-4	-14	i	-25
Cc1ccc(NC(=O)Cc2cccs2)cc1Cl	-1	-7	-1	-6	-18	-2	i	-7
CN(c1ccccc1)S(=O)(=O)c1cccc(NC(=O)CC(C)(C)C)c1	2	-6	7	31	x	-3	i	34
COc1ccc(C2NC(=O)Cc3cc(OC)c(OC)cc32)cc1OC (stereo unspecified)	3	-2	-9	-6	x	-9	i	-1
Cc1cc(C)c(C)c(S(=O)(=O)N2CCC(C(=O)OCC(=O)N3c4ccccc4NC(=O)C3(C)C)CC2)c1C	-2	-13	23	1	8	0	i	1
COc1ccc2c(c1)C(=O)C(=O)N2	-2	8	-2	0	-5	-10	i	11
CCN(CC)c1ccc(NC(=O)C2CC3CCC2C3)cc1 (stereo unspecified)	1	6	-5	10	-4	-4	i	x
CCC(=Nc1ccccc1)C1=C(O)CCCC1=O	7	5	3	-8	-5	-1	i	10
CS(=O)(=O)Nc1ccccc1C(=O)Nc1cc(Cl)cc(Cl)c1	-7	-31	-7	-2	1	59	i	u
CC(=O)c1sc2nc(SCC(=O)N3CCCCC3)[nH]c(=O)c2c1C	-8	-3	14	30	-9	10	i	x
COc1ccc(-c2c(C#Cc3ccc(N(C)C)cc3)c3ccccc3n2C)cc1	-4	1	x	x	-10	x	x	4
N#Cc1sc(=O)[nH]c1Cl	-4	4	x	x	-13	0	i	29
Cc1nonc1CN(C)C(=O)CC1C(=O)NCCN1Cc1ccc(F)c(F)c1 (stereo unspecified)	1	3	-1	1	-8	-3	i	-6
O=C(O)CCCCCNS(=O)(=O)c1ccc2c(c1)OCCO2	2	5	4	-11	x	-5	i	5
CC(OC(=O)CCN1C(=O)C2CC=CCC2C1=O)C(=O)Nc1ccc(F)cc1 (stereo unspecified)	-4	1	x	x	-6	x	x	-1
